# PABP polyA inh – PABP-poly(A) binding inhibition | AID 2014 | 290,000 tested, 1% active | PABP-poly(A) RNA binding, fluorescence polarization | P11940 | inhibition, % at 35 µM;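 active = 50% or more with normal probe brightness, or confirmed in later tests; about a fifth of its hits are not listed in these tables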;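 also: calls also rest on retests at 20 µM and on dose response follow-up; controls were probe without protein and protein plus probe with vehicle; some compounds called inactive have numbers as strong as hits; many hits fall short of the cut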
# Target sequence (P11940 whole entry, looked up): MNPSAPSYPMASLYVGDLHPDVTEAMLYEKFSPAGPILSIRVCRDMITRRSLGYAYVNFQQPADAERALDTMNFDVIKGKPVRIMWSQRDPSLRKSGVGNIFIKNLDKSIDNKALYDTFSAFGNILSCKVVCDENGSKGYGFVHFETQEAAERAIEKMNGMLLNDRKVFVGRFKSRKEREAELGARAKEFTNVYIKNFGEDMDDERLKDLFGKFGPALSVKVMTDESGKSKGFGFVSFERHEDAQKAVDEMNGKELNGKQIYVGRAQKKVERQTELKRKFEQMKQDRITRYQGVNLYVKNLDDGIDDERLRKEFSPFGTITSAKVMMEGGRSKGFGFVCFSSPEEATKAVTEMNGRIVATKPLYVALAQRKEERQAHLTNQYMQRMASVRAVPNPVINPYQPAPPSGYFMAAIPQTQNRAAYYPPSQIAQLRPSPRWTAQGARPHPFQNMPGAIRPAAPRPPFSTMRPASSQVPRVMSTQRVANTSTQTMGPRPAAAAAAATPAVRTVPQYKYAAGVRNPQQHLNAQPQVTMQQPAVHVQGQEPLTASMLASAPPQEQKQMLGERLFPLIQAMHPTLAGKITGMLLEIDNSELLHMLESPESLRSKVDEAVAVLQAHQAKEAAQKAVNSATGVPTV
# Rce1 inhib – yeast Ras-converting enzyme inhibition; 290,000 tested, 0.27% active; yeast membranes, quenched prenylated peptide cleavage fluorescence; AID 2563; calls only; Q03530;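 active = fall in fluorescence gain of 50% or more versus controls, with final raw signal at or below 3038400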;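 also: plate controls were neutral control wells for no effect and wells lacking membranes for full effect; tested at 10 µM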
# eIF4H FP inh – inhibitors of RNA binding by human eIF4H | inhibition, % at 35 µM | 290,000 tested, 0.94% active | eIF4H fluorescence polarization binding assay;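 active = 50% or more with normal probe brightness, or confirmed in later tests; about a fifth of its hits are not listed in these tables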;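 also: calls also rest on retests at 20 µM and on dose response follow-up; 0% = protein and probe with vehicle and 100% = probe without protein; strong numbers were not always called active; many hits fall short of the cut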
# HIV Env fusion – blocks HIV Env-driven cell-cell fusion. inhibition, % at 12.3 µM. 360,000 tested, 1.1% active. HeLa-JRFL Env/CEM21 cell fusion, luciferase;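 active = mean replicate inhibition score of at least 50 and every replicate individually at or above 50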;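 also: 0% = plate neutral controls and 100% = maraviroc near 300 nM; one replicate is shown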
# MT1-MMP act inh – blocks activation of human MT1-MMP; P50281; HT1080 RFP-PRO-GFP cells, GFP/RFP ratio fluorescence, overnight; percent of plate control window, DMSO zero; GFP/RFP ratio change, % at 20 µM; 360,000 tested, 0.061% active; AID 651647;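 active = GFP/RFP ratio change of at least 30% with cell ATP level not reduced by more than half and red fluorescence within 50% of control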; also: strong numbers were not always called active
#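 system = RFP-PRO-GFP reporter HT1080 cells | dosing = 20 µM single dose, 1% DMSO | timing = overnight cell settling, then overnight compound exposure, 37 °C, 5% CO2 | read-out basis = GFP/RFP fluorescence ratio | controls = DMSO and RFP-L50D-GFP cell wells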
# Yeast UUG start – modulators of start codon recognition fidelity in yeast | S. cerevisiae UUG-firefly luciferase reporter, luminescence/redox ratio | activity score, % at 18.7 µM | 350,000 tested, 0.13% active | AID 602363;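 active = replicate mean at a twofold rise or more, about +100% in these data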;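 also: firefly luciferase made from a UUG start codon reports start codon fidelity; reporter light over untreated wells divided by growth signal over untreated wells; some hits fall short of that in this replicate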
# CSC inhib – blocks cancer stem cells; AID 2717; inhibition, % at 7.5 µM; 300,000 tested, 1.1% active; cancer stem cell-like cells viability, luminescence;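 active = mean at 75% or more and at least half the replicates too; tested in HMLE shEcad cells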;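 also: 0% = median of negative and 100% = median of positive control wells; the first replicate is given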
# MT1-MMP act inh RFP – recorded beside MT1-MMP act inh, whose call it bears; RFP signal change, %; measured here: RFP expression control read;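 0 = vehicle wells; hits needed this value within 50% of zero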
# Numbers without * were called inactive; i = inactive; · = not tested or not shown. A portion of the library; the hit share may differ from the screen's.
1	N/C(=N\OC(=O)c1ccc(Br)cc1)c1ccncc1
2	COc1ccc(C(O)c2nc(-c3ccccc3)cs2)cc1 (stereo not drawn)
3	O=C1NC(=S)NC1=Cc1ccccc1O
4	O=C(NCCN1CCCC1)c1ccc(CS(=O)(=O)c2c(Cl)cccc2Cl)o1
5	O=C(NCC(=O)N(Cc1ccccc1)C(C(=O)NC1CCCC1)c1cccnc1)c1ccco1 (stereo not drawn)
6	O=S(=O)(c1ccccc1)N1C2CCC1CC(O)(c1cccnc1)C2 (stereo not drawn)

Compound,1,2,3,4,5,6
Yeast UUG start,·,-1,-11,-27,-10,-15
MT1-MMP act inh,2,4,-116,-1,0,-1
MT1-MMP act inh RFP,2,-9,4,6,-3,4
CSC inhib,-8,·,·,-10,-4,-4
eIF4H FP inh,-6,·,·,4,-8,-3
Rce1 inhib,i,·,·,i,i,i
HIV Env fusion,-80,-23,-30,6,-25,1
PABP polyA inh,-10,·,·,-9,6,-8

7	CC(=O)Nc1cccc(NC(C)=C(C#N)C#N)c1
8	Cc1cc(/C=C(\C#N)C(=O)O)c(C)n1CCC(C)C
9	O=C(COC(=O)c1ccc2ccccc2n1)NCc1ccccc1
10	Cc1ccn2c(=O)cc(C)nc2c1
11	COc1cc(OC)cc(C(=O)N[C@H](C(=O)Nc2ccc(F)cc2F)C(C)C)c1
12	CCc1nc2c(OCCOc3ccc(F)cc3)cccn2c1N(C=O)Cc1ccccc1

Compound,7,8,9,10,11,12
Yeast UUG start,-16,-11,-17,·,-15,-7
MT1-MMP act inh,3,4,-2,-1,-43,0
MT1-MMP act inh RFP,10,2,1,4,-30,-3
CSC inhib,-16,·,9,-1,-7,·
eIF4H FP inh,-7,3,10,-5,4,·
Rce1 inhib,i,i,i,i,i,·
HIV Env fusion,8,12,7,19,-3,-20
PABP polyA inh,36,2,10,-4,3,·

13	O=C(CSc1nnc(CNC(=O)c2ccccc2F)o1)NCCc1ccccc1
14	O=C(O)c1ccc(NC(=S)Nc2ccc(S(=O)(=O)Nc3ccccn3)cc2)cc1
15	O=[N+]([O-])c1ccc(COc2ccc(CN3CCOCC3)cc2)cc1
16	CCCN=C1NC(=O)C(CC(=O)NCCc2ccccc2)S1 (stereo not drawn)
17	O=C1CCCC2=C1C(c1cn(-c3ccccc3)nc1-c1cccs1)c1c([nH]c(=O)[nH]c1=O)N2 (stereo not drawn)
18	Cc1nc2ccc(F)cc2cc1C(=O)NCc1ccco1

Compound,13,14,15,16,17,18
Yeast UUG start,-13,-7,-1,·,-8,-14
MT1-MMP act inh,1,1,11,-2,4,3
MT1-MMP act inh RFP,2,3,-4,1,3,7
CSC inhib,-3,·,·,-11,-22,-5
eIF4H FP inh,-4,·,·,-7,14,-13
Rce1 inhib,i,·,·,i,i,i
HIV Env fusion,-76,i,-87,-5,·,-41
PABP polyA inh,0,·,·,1,-5,-4

19	Cc1ccc(C(=O)Nc2cccc(-c3ccc(N4CCOCC4)nn3)c2)cc1C
20	CC1CCCN(C(=O)c2cc(N3C(=O)C4C5CCC(C5)C4C3=O)ccc2Cl)C1 (stereo not drawn)
21	COc1ccc(/C=C(/NC(=O)c2ccc(C)cc2)c2nc3ccccc3[nH]2)cc1OC
22	COc1ccc(N(CC(=O)NCc2ccco2)C(=O)CCC(=O)Nc2nccs2)cc1
23	Cc1cccc(C)c1NC(=O)Nc1ccc(S(N)(=O)=O)cc1
24	CC1(C)OC2CC3C4CCC5=CC(=O)C=CC5(C)C4(F)C(O)CC3(C)C2(C(=O)CO)O1 (stereo not drawn)

Compound,19,20,21,22,23,24
Yeast UUG start,·,·,-1,-13,-15,-9
MT1-MMP act inh,-1,·,-2,0,-1,4
MT1-MMP act inh RFP,-1,·,-3,1,4,5
CSC inhib,·,-18,8,-12,-9,·
eIF4H FP inh,·,-9,-5,-12,2,·
Rce1 inhib,i,i,i,·,i,·
HIV Env fusion,-22,·,·,-1,10,i
PABP polyA inh,·,-8,7,-3,10,·

# Laid out differently: entries from further up
# Each structure is followed by: Yeast UUG start | MT1-MMP act inh | MT1-MMP act inh RFP | CSC inhib | eIF4H FP inh | Rce1 inhib | HIV Env fusion | PABP polyA inh
13. O=C(CSc1nnc(CNC(=O)c2ccccc2F)o1)NCCc1ccccc1
 : -13 | 1 | 2 | -3 | -4 | i | -76 | 0
14. O=C(O)c1ccc(NC(=S)Nc2ccc(S(=O)(=O)Nc3ccccn3)cc2)cc1
 : -7 | 1 | 3 | · | · | · | i | ·
15. O=[N+]([O-])c1ccc(COc2ccc(CN3CCOCC3)cc2)cc1
 : -1 | 11 | -4 | · | · | · | -87 | ·
16. CCCN=C1NC(=O)C(CC(=O)NCCc2ccccc2)S1 (stereo not drawn)
 : · | -2 | 1 | -11 | -7 | i | -5 | 1
17. O=C1CCCC2=C1C(c1cn(-c3ccccc3)nc1-c1cccs1)c1c([nH]c(=O)[nH]c1=O)N2 (stereo not drawn)
 : -8 | 4 | 3 | -22 | 14 | i | · | -5
18. Cc1nc2ccc(F)cc2cc1C(=O)NCc1ccco1
 : -14 | 3 | 7 | -5 | -13 | i | -41 | -4
19. Cc1ccc(C(=O)Nc2cccc(-c3ccc(N4CCOCC4)nn3)c2)cc1C
 : · | -1 | -1 | · | · | i | -22 | ·
20. CC1CCCN(C(=O)c2cc(N3C(=O)C4C5CCC(C5)C4C3=O)ccc2Cl)C1 (stereo not drawn)
 : · | · | · | -18 | -9 | i | · | -8
21. COc1ccc(/C=C(/NC(=O)c2ccc(C)cc2)c2nc3ccccc3[nH]2)cc1OC
 : -1 | -2 | -3 | 8 | -5 | i | · | 7
22. COc1ccc(N(CC(=O)NCc2ccco2)C(=O)CCC(=O)Nc2nccs2)cc1
 : -13 | 0 | 1 | -12 | -12 | · | -1 | -3
23. Cc1cccc(C)c1NC(=O)Nc1ccc(S(N)(=O)=O)cc1
 : -15 | -1 | 4 | -9 | 2 | i | 10 | 10
24. CC1(C)OC2CC3C4CCC5=CC(=O)C=CC5(C)C4(F)C(O)CC3(C)C2(C(=O)CO)O1 (stereo not drawn)
 : -9 | 4 | 5 | · | · | · | i | ·

# (list continues)
25	O=C(Nc1ccccc1Cl)Oc1ccc(Cl)cc1Cl
26	COc1cccc(/C=N/NC(=O)CN2C(=O)NC3NC(=O)NC32)c1 (stereo not drawn)
27	COCCn1c(SCC(=O)Nc2cc(C)on2)nnc1-c1ccccc1
28	CCOc1ccc(CCNC(=O)c2cc3ccccn3n2)cc1OCC
29	COC(=O)c1cc(C(=O)N(Cc2ccccc2)c2ccccn2)cc([N+](=O)[O-])c1
30	CC(=O)NC(Cc1c[nH]c2ccccc12)C(=O)N/N=C/c1ccccc1 (stereo not drawn)

Compound,25,26,27,28,29,30
Yeast UUG start,-23,-1,-17,-7,-9,-20
MT1-MMP act inh,-3,0,-1,6,4,-2
MT1-MMP act inh RFP,-5,4,2,-7,2,-2
CSC inhib,0,0,5,·,5,20
eIF4H FP inh,-4,-1,-3,-1,0,3
Rce1 inhib,i,i,i,i,i,i
HIV Env fusion,9,-53,1,14,20,14
PABP polyA inh,2,-20,-6,10,2,1

31	O=C(COc1cccnc1[N+](=O)[O-])Nc1ccc(Cl)cc1F
32	COc1ccc(OC)c(Nc2nc(-c3cccc([N+](=O)[O-])c3)nc3ccccc23)c1
33	COCCNc1nc(NCCN2CCNC2=O)c2sccc2n1
34	CN1/C(=C\C(=O)COc2ccc3c(c2)OCO3)C(C)(C)c2ccccc21
35	COC(=O)c1ccc(Cc2ccccc2)o1
36	CCC(C)NC(=O)[C@H]1N2C(=O)c3ccccc3C2SC1(C)C (stereo partly drawn)

Compound,31,32,33,34,35,36
Yeast UUG start,-9,-6,-16,-11,·,-14
MT1-MMP act inh,2,5,4,5,6,0
MT1-MMP act inh RFP,-2,0,0,11,4,3
CSC inhib,-1,8,·,112*,·,5
eIF4H FP inh,·,-4,·,18,2,-2
Rce1 inhib,·,i,·,i,i,i
HIV Env fusion,-12,-45,-12,·,·,-3
PABP polyA inh,·,-5,·,27,0,-9

37	CCCCc1n[nH]c2c1/C(=N/O)CC(C)(C)C2
38	O=C1C2C3C=CC(O3)C2C(=O)N1CC(O)c1ccccc1 (stereo not drawn)
39	Cc1cc2n(n1)C(c1sccc1C)Nc1ccccc1-2 (stereo not drawn)
40	O=C(N/N=C1\C2CN3CCN(C2)CC1(c1ccccc1)C3)Nc1ccccc1
41	CCc1ccc(CNC(=O)CCc2cn(C)c3ccccc23)cc1
42	CN(CC(=O)Nc1ccc(F)cc1)C(=O)COC(=O)c1ccc(=O)n(Cc2ccccc2)n1

Compound,37,38,39,40,41,42
Yeast UUG start,-24,-22,-6,·,-19,5
MT1-MMP act inh,3,0,3,3,0,-2
MT1-MMP act inh RFP,-1,2,2,3,0,2
CSC inhib,1,7,4,-1,16,·
eIF4H FP inh,4,5,-2,0,11,·
Rce1 inhib,·,i,i,i,i,·
HIV Env fusion,·,·,-26,0,16,1
PABP polyA inh,-5,-2,-5,0,0,·

43	CCOC(=O)c1ccccc1OCc1cc(/C=N/NC(=O)c2cccnc2)ccc1OC
44	COCc1cc(=O)n2c([nH]c3ccccc32)c1C#N
45	Cc1nn(C(=O)CCCC(=O)NCc2ccccc2)c2ccccc12
46	O=C(CN1CCN(C(=O)c2cccc(F)c2)CC1)Nc1ccccc1F
47	Cc1ccc(Nc2ncc3c(n2)CC(c2ccco2)CC3=O)c(C)c1 (stereo not drawn)
48	CCC(c1nnnn1Cc1cccs1)N1CCN(c2nc3ccccc3s2)CC1 (stereo not drawn)

Compound,43,44,45,46,47,48
Yeast UUG start,-6,·,2,·,-4,-19
MT1-MMP act inh,0,5,1,4,-4,-6
MT1-MMP act inh RFP,-5,5,1,4,1,-23
CSC inhib,1,20,-4,5,-11,·
eIF4H FP inh,0,19,3,-2,0,0
Rce1 inhib,i,i,i,i,i,i
HIV Env fusion,-119,·,4,·,·,·
PABP polyA inh,-12,4,-4,-1,3,-8

49	Cc1nn(C)c(=O)n1-c1ccccc1
50	COc1ccc2[nH]c(C(=O)O)c(CCC(=O)O)c2c1
51	CCn1c(CC(=O)Nc2ccc(F)cc2)nnc1SCC(=O)Nc1nncs1
52	CCc1ccc(C(=O)CN2CCSC2=N)cc1
53	CC(C)=CCCC1=CCC(/C(C)=N/NC(N)=O)CC1 (stereo not drawn)
54	O=C(CSc1nnc(CNC(=O)c2cccs2)o1)Nc1ccc(Cl)cc1
55	O=C1c2ccccc2-c2ccc(C(=O)N3CCCCC3)cc21
56	CCCCC(CC)CN1C(=O)/C(=C/c2ccncc2)SC1=S (stereo not drawn)

Compound,49,50,51,52,53,54,55,56
Yeast UUG start,9,-13,-9,·,·,2,·,-19
MT1-MMP act inh,2,-2,2,2,-4,6,-2,-9
MT1-MMP act inh RFP,1,5,2,-2,2,3,2,-13
CSC inhib,-8,-3,-11,1,50,15,-14,107*
eIF4H FP inh,-7,6,-6,-10,-14,-15,-1,3
Rce1 inhib,i,i,i,i,i,i,i,i
HIV Env fusion,-12,-72,-4,-80,·,-8,9,·
PABP polyA inh,-10,0,3,-1,-10,16,3,-2

# Screening results as filed in PubChem.
